Screening results from PubChem.
VDR inh: inhibitors of human vitamin D receptor. P11473. VDR-SRC2-3 peptide fluorescence polarization, 2 h. Potency, µM, without a hit: max response, negative = inhibition, most hits filed as inhibitors. 400,000 tested, 0.93% active; active means well fitted inhibition curve with a large enough effect; inconclusive means small, poorly fitted or top-dose-only effect, or another doubt; inactive means no such curve, though single readings can be large or run the other way; further: series mostly up to about 120 µM
Target sequence (P11473 whole entry, looked up): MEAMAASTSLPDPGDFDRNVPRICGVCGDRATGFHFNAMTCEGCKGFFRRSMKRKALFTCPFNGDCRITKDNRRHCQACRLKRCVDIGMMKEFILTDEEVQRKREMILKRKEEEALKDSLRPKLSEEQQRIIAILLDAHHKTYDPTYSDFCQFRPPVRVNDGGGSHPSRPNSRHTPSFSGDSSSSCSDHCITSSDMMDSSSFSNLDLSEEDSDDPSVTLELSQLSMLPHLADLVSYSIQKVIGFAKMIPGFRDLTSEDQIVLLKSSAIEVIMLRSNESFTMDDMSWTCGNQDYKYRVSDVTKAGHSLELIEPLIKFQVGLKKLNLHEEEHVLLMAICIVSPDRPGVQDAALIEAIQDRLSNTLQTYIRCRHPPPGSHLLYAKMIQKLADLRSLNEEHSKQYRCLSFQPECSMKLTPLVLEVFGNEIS
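Two reagent solutions held at 4 deg C in the dark were dispensed, compounds pinned at 23 nl, and the mixture incubated 2 h at room temperature. Read-out: fluorescence polarization of VDR–SRC2-3 peptide binding.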
An asterisk follows results filed as active; ? = inconclusive; & = joins results of further samples. On the % scale 0 is the no-effect control and ±100 the full control effect; potency means the concentration at half of the fitted maximal effect. The list is partial, so the mix of outcomes need not match the whole.

SMILES	VDR inh
CCOC(=O)c1csc(NC(=O)c2ccc(S(=O)(=O)N(C)C)cc2)n1	21.7%
O=c1cc(N2CCCCC2)c(-c2ccccc2)nn1Cc1ccccc1	?
CCCSc1nc2c(c(=O)[nH]c(=O)n2C)n1Cc1ccc(C)cc1	14.1%
NC(=O)c1ccc(C23CC4CC(CC(C4)C2)C3)o1	-21.9%
Cc1c(NC(NC(=O)CC(C)C)C(Cl)(Cl)Cl)c(=O)n(-c2ccccc2)n1C (centres undefined)	-10.0%
Cc1cccc(C(=O)OCC(=O)NCc2ccc3c(c2)OCO3)c1C	4.7%
CS(=O)(=O)N1CCC2(CC1)CN(c1ccccc1)C2	0.0%
Cc1c(-c2ccc(F)cc2)nc(N)c(C#N)c1-c1cccs1	-17.3%
Cn1cccc1C(=O)N1CCC2(CCCN(c3cccc(-c4ccccc4)c3)C2)CC1	-17.7%
Cc1ccccc1Nc1nc(N)nc(COC(=O)[C@@H](NC(=O)c2c(F)cccc2F)C(C)C)n1	10.0%
CCN(CC)C(=O)N1c2ccccc2C=Cc2ccccc21	11.3%
CCc1cccc(-n2nnc(-c3nc(-c4ccc5c(c4)OCO5)no3)c2C)c1	14.2%
COc1ccc(NC(=O)CCNS(=O)(=O)c2ccc3c(c2)CCC(=O)N3)cc1	6.7%
O=C(Nc1cccc(S(=O)(=O)N2CCCCCC2)c1)c1cc(=O)c2ccccc2o1	-14.4%
CN(Cc1nnc(-c2ccc(F)cc2)o1)c1ccccc1	5.4%
COc1ccc(CN2CC(C(=O)NCCC3=CCCCC3)CC2=O)cc1 (centres undefined)	8.0%
Cc1ccc(NC(=O)c2ccco2)c(NC(=O)c2cccs2)c1	-26.3%
COC12NC(=O)N(C)C1(OC)C(=O)N(C)C(=O)N2C (centres undefined)	-21.4%
CC(=O)Nc1ccc(Nc2nc(C)nc3c2oc2ccccc23)cc1	13.3%
COc1ccc2c(c1)[C@H]1[C@H](CO2)[C@H](c2ccccc2)[C@]2(C)C(=O)Nc3cc(C)ccc3C(=O)N12	-7.6%
O=C(O)CCC(=O)NNc1ccccc1[N+](=O)[O-]	15.3%
COC(=O)c1cc(-c2c(C)nn(-c3ccccc3)c2C)n[nH]1	8.3%
COc1ccc(CCNC(=O)C2CCN(C(=O)c3ccc([N+](=O)[O-])cc3)CC2)cc1	-26.4%
C/C(=C/c1ccccc1)C(=O)N1CCN(c2ccccc2)CC1	4.7%
O=C(Cc1ccccc1)Nc1ccc2c(c1)OC1(CCCC1)O2	-8.4%

Other structures follow.
SMILES	VDR inh
Cc1cccc(OCc2nnc(SCC(=O)N3CC(=O)Nc4ccccc43)o2)c1	-17.0%
CCN(CC(=O)Nc1ccc(C)c(F)c1)CC(=O)NC(C)(C)C	13.3%
CC(Nc1ncnc2c1cnn2-c1cccc(Cl)c1)c1ccccc1 (centres undefined)	4.9%
CCCn1c(SCC(=O)N2CCN(CC)CC2)nc2c1c(=O)n(C)c(=O)n2C	-0.8%
O=C(NCC1COCCO1)c1cc(COc2ccc(F)cc2F)on1 (centres undefined)	-12.9%
COc1ccc(OC)c(/C(O)=C/C(=O)C(=O)Nc2cc(C)cc(C)c2)c1	-8.5%
Cc1ccc2nc(-c3ccc(NC(=S)NCCC(C)C)cc3)sc2c1	-3.7%
CCN(CC)S(=O)(=O)c1ccc(/C=C/C(=O)OCC(=O)N(C)C)cc1	-2.4%
COc1ccc(S(=O)(=O)Nc2cccc(SC)c2)cc1C(=O)N1CCOCC1	-5.3%
CC(=O)Nc1ccc(NC2=CC(=O)c3ccccc3C2=O)cc1	6.1%
O=C1c2ccccc2C(=O)c2c(Nc3ccc(CCO)cc3)ccc(O)c21	?
COc1ccc(-c2nc(N)ncc2-c2ccc(Cl)cc2)c(O)c1	4.3%
Cc1cccc(NC(=S)NCC(c2cccnc2)N2CCOCC2)c1 (centres undefined)	-15.8%
COc1ccc2c(C)c(Cl)c(=O)oc2c1	7.5%
COc1ccc(N2CCN(C(=O)C3CCCN(S(=O)(=O)c4ccc5c(c4)oc(=O)n5C)C3)CC2)cc1 (centres undefined)	3.7%&-8.5%
Cn1c(Cn2c(=O)sc3ccccc32)nnc1SCC(=O)NCc1ccccc1	-5.4%
O=C(/C=C\c1ccc2c(c1)OCO2)NC1CC(=O)N(c2ccc(Cl)cc2)C1 (centres undefined)	10.7%
CCc1ccc(C2CC(=O)c3c([nH]c(C(=O)OC4CCC(C)CC4)c3C)C2)cc1 (centres undefined)	-6.5%
Cc1cc(NC(=O)c2cccc(S(=O)(=O)N3CC(c4ccccc4)CC3=O)c2)no1 (centres undefined)	-11.7%
Cc1cc(C)c2nc(SCCc3ccccc3)nc(C)c2c1	-0.8%
O=C(NCC1CCCO1)C1CCCN1C(=O)NC1CCCCC1 (centres undefined)	11.6%
CCCc1cc(=O)[nH]c(SCC(=O)Nc2sc3c(c2C#N)CCCC3)n1	-26.0%
CCOC(=O)c1c(NC(=O)c2cc(=O)c3cc(C)ccc3o2)sc2c1CCCC2	18.1%
Cc1ccc(NC(=O)c2cc3ccccc3cc2O)cc1	?
COc1cccc(OCC(=O)O/N=C(\N)c2ccc(OC)c(OC)c2)c1	1.0%

Exported as labelled records: part of the list above.
compound: CCc1ccc(C2CC(=O)c3c([nH]c(C(=O)OC4CCC(C)CC4)c3C)C2)cc1 (centres undefined)
  VDR inh = -6.5%

compound: Cc1cc(NC(=O)c2cccc(S(=O)(=O)N3CC(c4ccccc4)CC3=O)c2)no1 (centres undefined)
  VDR inh = -11.7%

compound: Cc1cc(C)c2nc(SCCc3ccccc3)nc(C)c2c1
  VDR inh = -0.8%

compound: O=C(NCC1CCCO1)C1CCCN1C(=O)NC1CCCCC1 (centres undefined)
  VDR inh = 11.6%

Next results
SMILES	VDR inh
Cc1ccc(NC(=S)N/N=C/c2ccc(OCCC(C)C)cc2)c(C)c1	-8.7%
O=C(c1ccc(CS(=O)(=O)c2c(Cl)cccc2Cl)o1)N1CCN(c2ccccn2)CC1	-3.4%
CCC(C(=O)Nc1ccc(C(C)C)cc1)c1ccccc1 (centres undefined)	-16.3%
N=C1c2ccccc2CN1NC(=O)c1cccc(S(=O)(=O)N2CCCC2)c1	-7.6%
COc1ccccc1C(NC(C)=O)c1c(O)ccc2ccc(O)cc12 (centres undefined)	-10.9%
COc1ccc(N(C)S(=O)(=O)c2c(C)[nH]c(=O)[nH]c2=O)cc1	6.5%
O=C(OCc1c(F)cccc1Cl)c1cnccn1	-14.7%
COc1ccc(OC)c(C2Nc3nc4ccccc4n3C(C)=C2C(=O)Nc2ccc(C)cc2C)c1 (centres undefined)	-9.6%
O=C(c1cc2c(s1)-c1ccccc1OC2)N1CCCC1	-4.2%
CCOc1ccc(N(CC(=O)Nc2ccccc2C(=O)NC(C)CC)S(C)(=O)=O)cc1 (centres undefined)	2.4%
COc1ccc(C)cc1NC(=O)c1cnc2ccc(C)cn2c1=O	2.0%
CCOC(=O)C1(Cc2cccc(OC)c2)CCN(CC(O)CO)CC1 (centres undefined)	0.7%
CCCNC(=O)c1onc(CSc2ccc(Cl)cc2)c1C(=O)NCCOC	-22.9%
O=C(O)c1ccc(N[C@@H]2OC[C@@H](O)[C@@H](O)[C@@H]2O)cc1	3.1%
COc1ccc(Cl)cc1-c1nc(-c2ccc(NC(=O)c3ccncc3)cc2)no1	26.0%
C=CCNC(=O)CSc1nnc(C(CC)N(C)C)n1C1CCCCC1 (centres undefined)	10.8%
CCOc1cc(C=O)ccc1OCC(=O)N1CCCC1	-17.5%
COC(=O)c1ccc(C(=O)OC)c(NC(=S)N2CCN(c3cccc(Cl)c3)CC2)c1	-20.8%
O=S(=O)(c1ccc(Cl)cc1)N1CCN(c2nc(-c3ccc(F)cc3)nc3cc(Cl)ccc23)CC1	-10.9%
CCOC(=O)Cc1csc(NC(=O)c2csc(C)c2)n1	15.6%
CCOC(=O)c1c(-c2ccccc2)csc1NC(=O)c1cc(-c2ccc(F)cc2)on1	?
Cc1ccc(CN2CCCCC2C(=O)Nc2ccc(Oc3cccnc3)cc2)o1 (centres undefined)	-7.7%
COc1ccccc1CNC(=O)CN1CCN(S(=O)(=O)c2cccs2)CC1	9.8%
CC(NS(=O)(=O)c1ccc2c(c1)CCN2C(=O)CCCC(=O)O)c1ccccc1 (centres undefined)	-9.0%
COc1cc(OC)c(OC)cc1/C=C/c1nc2ccccc2c(=O)n1-c1ccc(Br)c(C)c1	0.7%

New compounds follow.
SMILES	VDR inh
CC(C)(C)NC(=O)C(c1ccncc1)N(C(=O)c1csnn1)c1ccccc1 (centres undefined)	-2.0%
Cc1ccc(NC(=O)CNC(=O)c2cccc(Cl)c2)nc1	3.7%
Cc1cc(C)nc(NS(=O)(=O)c2ccc(NC(=O)C(C)Oc3ccccc3F)cc2)n1 (centres undefined)	-11.9%
CSc1ccc(CN(C)CC(=O)Nc2ccccc2Br)cc1	-20.6%
O=P(O)(CCc1ccccc1)CN1CCCCC1	6.2%
COc1ccc(S(=O)(=O)N2CCOCC2)cc1NC(=O)CSc1nnc2n1CCCCC2	-7.8%
O=C(CCC(=O)OCc1cccc([N+](=O)[O-])c1)Nc1ccccc1Cl	-14.7%
Cc1ccc(NS(=O)(=O)c2cccc(C(=O)NC3CC3)c2)c(C)c1	7.9%
COc1cccc(C(=O)N/N=C(\CC(C)C)c2ccccc2)c1	-8.3%
O=C(c1cc(-c2ccc(Cl)s2)nc2ccccc12)N1CCOCC1	-3.4%
Cc1cccc(N(C(=O)c2csnn2)C(C(=O)NCc2ccccc2)c2ccncc2)c1 (centres undefined)	21.5%
CCC(C)[C@H](NS(=O)(=O)c1ccc(C)cc1)C(=O)N1CCC(C(=O)N2CCC(C(N)=O)CC2)CC1 (some centres undefined)	4.1%
Cc1cc(=O)n(C)c(=O)n1CCCCCOc1cccc([N+](=O)[O-])c1	-17.5%
O=C(c1ccccc1)C(O)c1ccccc1 (centres undefined)	2.3%&-14.1%
CCN1C[C@@H]2[C@@H]3C(=O)N(C)C(=O)[C@@H]3[C@](Cc3ccccc3)(C1=O)N2C(=O)c1ccc(Br)cc1	-14.2%
Cc1cccc2cc(CN(Cc3cccs3)C3(c4nnnn4C4CCCC4)CCCC3)c(=O)[nH]c12	7.9%
O=C(/C=C/c1ccccc1)OCCN1C(=O)c2ccccc2C1=O	7.1%
COc1cccc(CN(C(=O)Cc2c[nH]c3ccccc23)C(C(=O)NC2CCCCC2)c2cccs2)c1 (centres undefined)	-2.5%
COc1ccc(CN(C)C(=O)c2cc(S(=O)(=O)Nc3ccccc3F)ccc2C)c(OC)c1	-0.6%
CC(C)N(Cc1nccn1C)C(=O)c1cc(COc2cccc(C(F)(F)F)c2)on1	2.7%
COc1ccc(-n2cc(C(=O)NCCc3cc(OC)ccc3OC)c3ccccc3c2=O)cc1	4.0%
O=C1CC[C@@]23/C=C/C(=O)NCCCCNCCCNC(=O)/C=C/c4ccc(c2c4)OC3C1 (some centres undefined)	-0.1%
COc1ccccc1/C=C1\SC(=S)N(CC(=O)NC2CCS(=O)(=O)C2)C1=O (centres undefined)	-8.1%
COc1ccc(C(=O)OCC(=O)N2CCN(C(=O)c3ccco3)CC2)cc1OC	2.6%
O=C(NC(=O)c1cccc(F)c1)Nc1nc(-c2ccc(F)cc2)cc(C(F)(F)F)n1	8.4%

Shown comma-delimited: part of the list above
structure,VDR inh
COc1cccc(CN(C(=O)Cc2c[nH]c3ccccc23)C(C(=O)NC2CCCCC2)c2cccs2)c1 (centres undefined),-2.5%
COc1ccc(CN(C)C(=O)c2cc(S(=O)(=O)Nc3ccccc3F)ccc2C)c(OC)c1,-0.6%
CC(C)N(Cc1nccn1C)C(=O)c1cc(COc2cccc(C(F)(F)F)c2)on1,2.7%
COc1ccc(-n2cc(C(=O)NCCc3cc(OC)ccc3OC)c3ccccc3c2=O)cc1,4.0%
O=C1CC[C@@]23/C=C/C(=O)NCCCCNCCCNC(=O)/C=C/c4ccc(c2c4)OC3C1 (some centres undefined),-0.1%
COc1ccccc1/C=C1\SC(=S)N(CC(=O)NC2CCS(=O)(=O)C2)C1=O (centres undefined),-8.1%

Additional records follow:
SMILES	VDR inh
Nc1ccccc1-c1nnn(CC(=O)Nc2ccc3c(c2)OCCO3)n1	2.1%
CN(CC(=O)N1CCN(c2ccccc2)CC1)S(=O)(=O)c1cnc[nH]1	-3.3%
COC1=C/C(=C/c2c(N)n3c(nc2=O)sc2cc(S(C)(=O)=O)ccc23)C=CC1=O	-9.7%
CC(C)(C)N=Cc1c(O)ccc2oc3c(c12)CCCC3	-2.8%
CC(=O)c1c(C)[nH]c(C(=O)OCCCCN2C(=O)c3ccccc3C2=O)c1C	8.5%
CN(C)CCCn1c(N)c(C#N)c2nc(C#N)c(C#N)nc21	1.2%
CN1Cc2ccccc2CC1CNCc1c(C(=O)N2CCCC2)nc2ccccn12 (centres undefined)	-7.3%
COc1ccc(/C=C(/NC(=O)c2cccs2)C(=O)Nc2ccc(C)cc2)cc1OC	3.1%
CCOC(=O)C1CCCN(CCC(=O)Nc2cccc(Cl)c2C)C1 (centres undefined)	-10.4%
O=C(NCCN1CCN(C(=O)C(c2ccccc2)c2ccccc2)CC1)C(=O)Nc1ccccc1	-18.7%
C[C@@H]1CN([C@@H](C)CO)C(=O)Cc2cc(NC(=O)Nc3cccc4ccccc34)ccc2O[C@@H]1CN(C)S(C)(=O)=O	8.0%
CC(C)CN(CCCNC(=O)CN1N=C(c2ccccc2)CCC1=O)CC(C)C	-1.0%
CCc1ccc(C2CC(c3cccc(Cl)c3)n3nc(N)nc3N2)cc1 (centres undefined)	-5.5%
COc1cc(Cl)c(C)cc1NCC(=O)Nc1cccc(S(=O)(=O)N2CCCC2)c1	9.9%
C/C(=C\C(=O)c1ccc(F)cc1)Nc1ccc(N2CCOCC2)cc1	9.0%
O=C1NC(=O)C2(Br)Nc3ccc(Br)cc3C(=O)C2N1 (centres undefined)	22.3%
Brc1c(CSc2nnc(-c3ccco3)o2)nc2ccccn12	5.5%
Cc1onc(-c2ccccc2)c1C(=O)OCC(=O)Nc1cccc(Cl)c1	0.3%
CC1SC(C)C(=O)N(CC(=O)Nc2ccc([N+](=O)[O-])cc2)C1=O (centres undefined)	-9.6%
